Mtb H37Rv: M. tuberculosis H37Rv growth inhibitors, H37Rv strain (AID 1626); M. tuberculosis H37Rv growth inhibition; higher % means a stronger effect; inhibition, % at 10 µM, or IC50 in µM where a hit was titrated; 0.95% of 220,000 active;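 active = confirmed in a dose series; inconclusive = inhibition above 80% but not taken into the dose series; inactive = below 80% or under 30% at every dose of the series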;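 note: bacteria incubated seven days before Alamar blue readout; 0% = bacteria only wells and 100% = bacteria with antibiotic wells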
YopH PTP inh: blocks Yersinia enterocolitica YopH tyrosine phosphatase; fluorescence Ex485/Em525; inhibition, %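 (about 10 µM by stock and volumes)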; 0.16% of 140,000 active; AID 898;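 active = inhibition of 50% or more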;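 note: controls were vehicle for no effect and minimum signal wells for full effect; inactives centre near -20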
Mtb betalactam: beta-lactam sensitization of Mtb H37Rv; AID 434955; M. tuberculosis H37Rv growth with meropenem, percent inhibition; hits of this screen are not shown here; 0.27% of 330,000 active; inhibition, % at 25 µM;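 active = about 74% or more and at least 40 points above the plate without the antibiotic, then above 30% in a dose series; inconclusive = first-round hits that could not be retested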;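 note: growth measured after seven days incubation then overnight dye step; 0% = bacteria only wells and 100% = bacteria with antibiotic; twin plates without the antibiotic show which effects depend on it; some results filed as inactive read as strong as hits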
RecA intein inh: blocks M. tuberculosis RecA intein splicing | inhibition, %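 (about 9 µM by stock and volumes)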 | cell-free RecA intein splicing, fluorescence | 0.75% of 290,000 active | P9WHJ3; in the data active = inhibition above about 30%; inconclusive = no clear call, values can overlap the other calls;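 note: 0% = vehicle wells and 100% = reference inhibitor control wells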
Target sequence (P9WHJ3 whole entry, looked up): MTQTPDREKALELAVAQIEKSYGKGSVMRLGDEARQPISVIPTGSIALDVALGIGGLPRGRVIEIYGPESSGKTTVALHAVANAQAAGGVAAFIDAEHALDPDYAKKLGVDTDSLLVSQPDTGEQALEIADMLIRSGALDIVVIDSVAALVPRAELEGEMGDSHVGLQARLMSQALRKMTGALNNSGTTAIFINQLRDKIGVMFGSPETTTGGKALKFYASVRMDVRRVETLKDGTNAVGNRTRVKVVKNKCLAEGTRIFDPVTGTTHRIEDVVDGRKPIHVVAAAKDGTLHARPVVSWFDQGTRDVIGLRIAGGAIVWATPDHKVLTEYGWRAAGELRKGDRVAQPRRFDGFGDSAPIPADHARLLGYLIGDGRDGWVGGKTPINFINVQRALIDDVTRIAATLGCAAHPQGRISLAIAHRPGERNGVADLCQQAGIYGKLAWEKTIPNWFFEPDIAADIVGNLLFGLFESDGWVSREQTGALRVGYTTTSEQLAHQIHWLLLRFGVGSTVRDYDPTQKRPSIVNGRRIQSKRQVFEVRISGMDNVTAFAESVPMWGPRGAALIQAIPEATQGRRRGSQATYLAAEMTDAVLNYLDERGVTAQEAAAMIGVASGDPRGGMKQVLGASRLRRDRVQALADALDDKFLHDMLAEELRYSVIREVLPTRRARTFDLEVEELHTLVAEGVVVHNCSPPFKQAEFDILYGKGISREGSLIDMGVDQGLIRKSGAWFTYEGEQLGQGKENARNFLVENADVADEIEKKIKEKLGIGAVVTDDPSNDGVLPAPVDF
Arbovirus inh: antivirals against arbovirus infection; arbovirus infection cell-based antiviral screen; inhibition, % at 10 µM; 0.37% of 200,000 active; AID 1251;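 active = inhibition from about 30%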;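 note: bluetongue infection of BSR cells; cell survival read as ATP light after 72 h; 0% = infected wells without compound and 100% = uninfected wells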
Arbovirus inh repeat: further read-out of Arbovirus inh, marked with its call; inhibition, %; measured here: 10K subset replicate screen; many hits read low in the repeat;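 first of two repeat runs on a subset; 0% = infected and 100% = uninfected wells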
Active calls of the source: *; ? = inconclusive; . = not tested or not shown. The list is partial; count on the stated rates, not on these rows.

SMILES | Mtb H37Rv | YopH PTP inh | Mtb betalactam | RecA intein inh | Arbovirus inh | others
CC(C)(C)C(=O)C(Cc1ccccc1)n1cncn1 (centres undefined) | -8% | -6 | -14 | 0.5 | 6
CN(CC(=O)N1CCCC1)S(=O)(=O)c1ccc(Cl)cc1 | -1% | -3 | 4 | -2.3 | 0
COc1ccccc1N1CCN(CCCOc2ccc(F)cc2)CC1 | -2% | 0 | -1 | -2.8 | 5
CCC(C(=O)Nc1ccc2c(c1)OCCO2)n1nnc2ccccc2c1=O (centres undefined) | . | . | 2 | 3.8 | .
CCOC(=O)c1cc2sccc2n1CC(=O)c1ccc2c(c1)OCCO2 | 12% | -27 | 16 | 5.8 | 9
S=C(NCC1CC1)N/N=C/c1ccccc1Cl | 6% | . | 3 | -1.3 | .
CN(Cc1ccccc1)C(=O)Cn1nc(C(F)(F)F)c2c1CCC2 | 3% | -17 | -6 | 0.1 | -4
CCOC(=O)c1c(C)[nH]c(C)c1C(=O)COC(=O)c1cc(OC)cc(OC)c1 | 6% | . | 9 | 1.8 | 1
CC1(c2ccccc2)NC(=O)N(CC(=O)N2CCN(S(=O)(=O)c3ccccc3[N+](=O)[O-])CC2)C1=O (centres undefined) | . | . | -16 | 1.6 | .
CC(=O)NC1C(=O)N(C)c2ccc(Br)cc21 (centres undefined) | -5% | 11 | -14 | 0.4 | 0
NC(=O)CNC(=O)C1CCN(S(=O)(=O)c2ccc(-n3cnnn3)cc2)CC1 | . | . | 1 | 1.2 | .
O=C(NCc1ccco1)c1cc(S(=O)(=O)N2CCOCC2)c(Cl)cc1Cl | 2% | -31 | . | 0.6 | -3
Cc1ccc(S(=O)(=O)NC(=O)NC(C)Cc2ccccc2)cc1 (centres undefined) | -3% | . | -2 | 0.6 | -1
C/C(=N\NC(=O)COc1ccccc1)c1cccs1 | 12% | -28 | 43 | -0.8 | 2
COC(=O)c1ccc(C2C(C(=O)c3ccco3)=C(O)C(=O)N2CC2CCCO2)cc1 (centres undefined) | . | . | -4 | 4.3 | .
N#Cc1cc(-c2ccccc2)nnc1Oc1ccccc1 | -8% | -8 | -6 | 2.8 | -1
O=C(CNC(=O)C12CC3CC(CC(C3)C1)C2)NCc1ccccc1 | . | . | 1 | 5.5 | .
C/C(N)=C(/C#N)C(=O)COC(=O)c1ccccc1Oc1ccccc1 | -2% | . | 1 | 1.2 | -3
CCOc1cc(C#N)c(NC(=O)CSc2nnnn2-c2ccc(OC)cc2)cc1OCC | 0% | -37 | 1 | 1.2 | 0
Cc1ccccc1-n1c(C)cc(/C=N/NC(=O)c2ccncc2)c1C | ? | -44 | 98 | 2.3 | 8
COCCn1nnnc1C(c1ccccc1)N1CCN(C(=O)c2ccco2)CC1 (centres undefined) | . | . | -5 | 4.3 | .
COc1ccc(OP(=O)(Nc2ccccc2)Nc2ccccc2)cc1 | 6% | -26 | -3 | 4.1 | 4
CCn1c(CSc2n[nH]c(N)n2)nc2cc(C(=O)O)ccc21 | 8% | . | -10 | 1.1 | 8
O=C(COc1ncnc2ccccc12)Nc1cccc([N+](=O)[O-])c1 | -2% | . | -3 | 1.3 | -1
C=CCSC1=N/C(=C\c2ccc(C(=O)O)cc2)C(=O)S1 | 8% | . | -3 | 1.0 | -6
O=C(CSc1nc(-c2ccncc2)nn1CC(=O)N1CCCCC1)NC1CCCC1 | -7% | -26 | -4 | 0.0 | 1 | Arbovirus inh repeat=2
CN(C)c1ccc(/C=N\NC(=O)c2cccc3cc[nH]c23)cc1 | 5% | . | -8 | -1.3 | .
CCCCC(=O)OCC(=O)c1ccc(OCC)cc1 | 8% | 7 | 9 | 2.0 | -5
CCC(=O)Nc1ccc(-c2cc3ccccc3oc2=O)cc1 | 7% | . | -7 | -5.8 | -4
Cc1ccc(C)n1-c1ccc(C(=O)Nc2ccccc2F)cc1 | -2% | . | -10 | 5.7 | -19
Cc1cccc(NC(=O)Cn2cnc3c(cnn3-c3ccc(F)cc3)c2=O)c1C | -5% | -3 | -10 | 1.0 | -17 | Arbovirus inh repeat=-16
Cc1nn(C)cc1C1C2=C(CC(C)(C)CC2=O)N(c2ccccc2)C2=C1C(=O)CC(C)(C)C2 | -10% | 16 | -12 | -16 | 4
COCCn1c(N2CCN(c3ccc(OC)cc3)CC2)nc2c1c(=O)n(C)c(=O)n2C | 0% | -14 | ? | -3.6 | -2
CS(=O)(=O)Nc1ccc(C(=O)NCC2CCCO2)cc1 (centres undefined) | -3% | -27 | -12 | -0.9 | -3
CCc1c(SCCC(=O)O)nc2ccccc2c1C | -2% | . | 0 | 0.8 | 7
O=C(Nc1cccc(S(=O)(=O)N2CCCCC2)c1)Nc1ccc(Cl)cc1Cl | 13% | -11 | -6 | 8.5 | -32
C[C@@H](C(=O)NCCc1c[nH]c2ccccc12)[C@@H]1C[C@@]1(C)[C@@H](NC(=O)OCc1ccccc1)c1ccccc1 | 15% | -22 | 53 | . | -12
CC(C)OC(=O)Cn1nc(C(F)(F)F)c2c1CCCC2 | -2% | . | 1 | -0.8 | -3
c1ccc(CNc2c3c(nc4ccccc24)CCC3)cc1 | 9% | . | -4 | 6.5 | .
COc1ccc(N2CCN(c3nc(NC(C)(C)C)nc(N4CCCCC4)n3)CC2)cc1 | 3.8µM* | -23 | 93 | 5.5 | 24

Brought forward from above: three entries, then new ones.
SMILES | Mtb H37Rv | YopH PTP inh | Mtb betalactam | RecA intein inh | Arbovirus inh | others
CC(C)OC(=O)Cn1nc(C(F)(F)F)c2c1CCCC2 | -2% | . | 1 | -0.8 | -3
c1ccc(CNc2c3c(nc4ccccc24)CCC3)cc1 | 9% | . | -4 | 6.5 | .
COc1ccc(N2CCN(c3nc(NC(C)(C)C)nc(N4CCCCC4)n3)CC2)cc1 | 3.8µM* | -23 | 93 | 5.5 | 24
CCCCOc1ccc(-c2cc(C(=O)NNC(=S)NCC)c3ccccc3n2)cc1 | -6% | -14 | 96 | 0.8 | -41
Cc1ccc(S(=O)(=O)NCC(=O)N(CC(=O)NCC2CCCO2)CC2CCCO2)cc1 (centres undefined) | 4% | . | -2 | -2.9 | 7
Cc1cc(C)c(NC(=S)N(CCCN2CCN(C)CC2)Cc2cccs2)c(C)c1 | -3% | . | 1 | 3.0 | 1
O=S(=O)(c1cc(Cl)ccc1Cl)N1CCCCC1 | 1% | -34 | 2 | 2.2 | -4
CSc1ncc(-c2ccc(Cl)cc2)[nH]1 | 6% | . | -6 | -2.8 | .
O=C(O)C1C2C=CC(C2)C1C(=O)NC1CCS(=O)(=O)C1 (centres undefined) | 2% | -22 | -13 | 0.0 | 9
Cc1cccc(/C=N/N(CCO)C2=NS(=O)(=O)c3ccccc32)c1 | 12% | . | 1 | . | 1
COC(=O)CCCC(=O)N1CCC(CO)(CCc2ccccc2)CC1 | . | . | -2 | 1.5 | .
CCOc1nc(NCCN2CCOCC2)nc(NC(C)C)n1 | -11% | -32 | -2 | -0.8 | -1
COc1ccc(C(=O)Nc2cc3c(cc2Cl)OCCCO3)cc1 | 5% | -9 | 10 | -3.6 | -3
Cc1cc(OCC(=O)c2cccc(C(F)(F)F)c2)n2cnnc2n1 | -1% | . | 0 | 0.9 | .
CCC(NC(=O)c1ccccc1NC(=O)c1ccc(C)cc1)C(=O)O (centres undefined) | 0% | -28 | 3 | 0.2 | -1
CCOc1ccccc1N(CC(=O)O)S(=O)(=O)c1ccccc1 | -3% | -75 | -3 | . | 0
Nc1cc2c(cc1[N+](=O)[O-])OCCO2 | 2% | -26 | -9 | 2.7 | 0
O=C(CN1CCOCC1)Nc1c2c(nc3ccccc13)N(Cc1ccccc1)CC2 | 1% | -27 | -11 | -3.6 | 7
CN(C)c1ccc(CNC(=O)CN2C(=O)COc3ccc(S(=O)(=O)N4CCCC4)cc32)cc1 | . | . | 3 | -1.6 | .
Cn1c(CNC(=O)C(C)(C)C)nc2ccccc21 | -11% | -27 | 0 | 3.9 | 2 | Arbovirus inh repeat=1
Cc1ccc(Cn2cc(/C=N/NC(=O)Cc3nnc(NC(=O)c4ccc(C)cc4)s3)c3ccccc32)cc1 | 8% | . | 3 | -1.6 | -13
CCOC(=O)N1CCC(NC(=O)C2=C(C)C(=O)OC23CCC(C)CC3)CC1 (centres undefined) | 4% | -4 | -4 | 0.3 | -1
CCN(CC(=O)NCc1cccs1)C(=O)/C=C/c1cccc(OC)c1OC | . | . | -5 | -0.6 | .
Cc1ccc([N+](=O)[O-])cc1S(=O)(=O)N1CCN(C)CC1 | -6% | . | 2 | -1.4 | 9
Cc1ccc(S(=O)(=O)Nc2ccc3c(c2)c2c(n3S(=O)(=O)c3ccc(C)cc3)CCCC2=O)cc1 | 2% | -8 | 4 | -0.4 | -4
COc1ccc(C(=O)O)cc1S(=O)(=O)N1CCSCC1 | . | . | 3 | -0.4 | .
COc1ccc(Nc2n[nH]c(C)c2[N+](=O)[O-])cc1 | 5% | . | -5 | -3.6 | 11
Cc1cc(N2CCN(c3ccccc3)CC2)n2cc(-c3ccccc3)nc2n1 | 13% | -21 | 82 | 0.1 | -6
CC(=O)Nc1cc(S(=O)(=O)Nc2ccc(C)cc2)c(C)cc1C | -5% | -18 | -1 | 1.9 | -1
COc1ccc(OCC(=O)NNC(=O)c2cccc(O)c2)cc1 | 1% | . | 23 | -1.6 | 2
Cc1cc(=O)[nH]c(-n2[nH]c3c(c2=O)CCCC3)n1 | -3% | -43 | 95 | . | -3
COc1ccc(CNC(=O)COC(=O)c2c(-c3c(F)cccc3Cl)noc2C)cc1OC | -3% | 4 | 4 | . | 2
O=C1CCc2cc(S(=O)(=O)NC(Cc3ccccc3)C(=O)NCCC3=CCCCC3)ccc2N1 (centres undefined) | 4% | -57 | 3 | 1.5 | -14
COc1cccc(OC)c1NC(=O)CN1CCC(NC(=O)c2cccc(F)c2)CC1 | 5% | 0 | -13 | -0.9 | -5
Cc1ccc(Cl)cc1NC(=O)N[C@@H](C)C(=O)O | -9% | -38 | -8 | -2.4 | 0
CS(=O)(=O)N(Cc1ccc(C(=O)NCCSc2ccccn2)cc1)c1ccccc1 | 7% | -12 | 7 | 0.3 | -5
CCCCOc1ccc(C(=O)Nc2ccc(N3CCN(C(=O)C(C)C)CC3)cc2)cc1 | -14% | 2 | 73 | 2.1 | -23
O=C(NCCCn1ccnc1)c1cccc(S(=O)(=O)N2CCCCCC2)c1 | -2% | -7 | 8 | -0.3 | -6
NC(=O)[C@H]1CC2(CC(c3cccc(NC(=O)COc4ccc(Cl)cc4)c3)=NO2)CN1C(=O)c1ccccc1C(=O)c1ccccc1 (some centres undefined) | 46% | . | 1 | 9.5 | .
CC1CCCC(NC(=O)C2CCCN2S(=O)(=O)c2cccc3nsnc23)C1C (centres undefined) | 0% | -32 | -11 | -0.4 | 1
Cc1ccc(NC(=O)C(=O)NCCN2CCN(S(=O)(=O)c3ccccc3)CC2)cc1C | 15% | . | 1 | 4.9 | 22
O=C(c1cc(-c2cccc(Cl)c2)on1)N1CCCCCC1 | . | . | 2 | -3.1 | .
CNC(=S)N(CCc1c(C)[nH]c2ccc(F)cc12)Cc1ccco1 | . | . | 81 | -1.1 | .

3 compounds already listed, sorted by formula weight, lowest first:
SMILES | Mtb H37Rv | YopH PTP inh | Mtb betalactam | RecA intein inh | Arbovirus inh | others
COc1ccc(OCC(=O)NNC(=O)c2cccc(O)c2)cc1 | 1% | . | 23 | -1.6 | 2
CNC(=S)N(CCc1c(C)[nH]c2ccc(F)cc12)Cc1ccco1 | . | . | 81 | -1.1 | .
Cc1ccc(NC(=O)C(=O)NCCN2CCN(S(=O)(=O)c3ccccc3)CC2)cc1C | 15% | . | 1 | 4.9 | 22

More compounds:
SMILES | Mtb H37Rv | YopH PTP inh | Mtb betalactam | RecA intein inh | Arbovirus inh | others
Cc1ccc(N(Cc2ccc(C(=O)NN=C3CCN(C)CC3)cc2)S(C)(=O)=O)cc1C | -3% | -19 | -6 | -3.2 | 1
N#Cc1ccc2[nH]cc(CCO)c2c1 | . | . | -5 | 2.2 | .
COc1ccc(NC(=O)C23CC4CC(C2)CC(n2cnc(Br)n2)(C4)C3)c(C)c1 | -7% | 21 | -9 | 2.5 | 6
Cc1ccc(NS(=O)(=O)c2cc(NC(=O)c3cc4c(s3)CCCC4)ccc2C)c(C)c1 | 6% | -17 | -2 | 5.9 | -27
COc1ccc(S(=O)(=O)NNC(=O)c2cc3c4ccccc4n(C)c3s2)cc1 | 6% | -13 | 4 | -0.7 | -1
CCCCN1C(N)=NC[C@@H]1C(C)O (some centres undefined) | 0% | . | 0 | -4.3 | .
Cc1ccc(NC2CCCN(C(=O)CCC3=NNC(=O)CC3)C2)cc1C (centres undefined) | . | . | -9 | -1.4 | .
CC(=O)Nc1ccc2c(c1)OCCOCCOc1cc(NC(C)=O)ccc1OCCOCCOCCO2 | . | -13 | 4 | 0.2 | 10
COCCNC(=S)NNC(=O)c1ccco1 | 1% | -6 | 2 | -0.4 | -2

Screening data as filed in PubChem.
